Source: PubChem BioAssay
Arbovirus inh = blocks arbovirus infection; arbovirus infection cell-based antiviral screen; inhibition, % at 10 µM; 0.37% of 200,000 active; AID 1251;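 active means inhibition from about 30%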;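 further: bluetongue infection of BSR cells; cell survival read as ATP light after 72 h; 0% = infected wells without compound and 100% = uninfected wells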
Mtb growth = M. tuberculosis H37Rv growth inhibitors, H37Rv strain (AID 1626); M. tuberculosis H37Rv growth inhibition; higher % means a stronger effect; inhibition, % at 10 µM; hits with a dose series show IC50 in µM; 0.95% of 220,000 active;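 active means confirmed in a dose series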;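 further: bacteria incubated seven days before Alamar blue readout; 0% = bacteria only wells and 100% = bacteria with antibiotic wells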
RecA splice inh = inhibitors of M. tuberculosis RecA intein splicing. P9WHJ3. cell-free RecA intein splicing, fluorescence. inhibition, %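 (about 9 µM by stock and volumes)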. 0.75% of 290,000 active; in the data active means inhibition above about 30%;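 further: 0% = vehicle wells and 100% = reference inhibitor control wells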
Target sequence (P9WHJ3 whole entry, looked up, canonical isoform): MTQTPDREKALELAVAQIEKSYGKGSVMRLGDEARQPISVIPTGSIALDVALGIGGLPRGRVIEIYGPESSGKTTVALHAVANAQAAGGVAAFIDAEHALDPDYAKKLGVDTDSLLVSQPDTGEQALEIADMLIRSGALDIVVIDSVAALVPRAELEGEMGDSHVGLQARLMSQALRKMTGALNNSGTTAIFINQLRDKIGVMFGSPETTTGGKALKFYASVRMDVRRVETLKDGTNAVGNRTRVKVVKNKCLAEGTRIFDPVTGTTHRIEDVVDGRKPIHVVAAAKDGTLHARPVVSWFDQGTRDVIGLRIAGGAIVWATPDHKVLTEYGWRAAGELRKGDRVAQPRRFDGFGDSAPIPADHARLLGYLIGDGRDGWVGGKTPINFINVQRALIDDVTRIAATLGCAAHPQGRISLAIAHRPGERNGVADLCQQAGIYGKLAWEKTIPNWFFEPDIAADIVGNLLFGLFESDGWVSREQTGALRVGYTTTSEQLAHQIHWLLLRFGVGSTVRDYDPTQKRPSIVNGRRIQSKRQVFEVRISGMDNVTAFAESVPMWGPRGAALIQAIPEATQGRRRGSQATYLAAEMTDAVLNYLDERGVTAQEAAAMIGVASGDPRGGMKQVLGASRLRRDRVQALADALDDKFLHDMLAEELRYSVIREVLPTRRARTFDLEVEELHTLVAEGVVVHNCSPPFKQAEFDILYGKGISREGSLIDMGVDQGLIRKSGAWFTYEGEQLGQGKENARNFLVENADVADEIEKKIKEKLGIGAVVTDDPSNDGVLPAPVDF
YopH PTP inh = blocks Yersinia enterocolitica YopH tyrosine phosphatase | 0.16% of 140,000 active | fluorescence Ex485/Em525 | AID 898 | inhibition, %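 (about 10 µM by stock and volumes)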;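 active means inhibition of 50% or more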;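 further: controls were vehicle for no effect and minimum signal wells for full effect; inactives centre near -20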
Mtb betalactam = beta-lactam sensitization of Mtb H37Rv | M. tuberculosis H37Rv growth with meropenem, percent inhibition; hits of this screen are not shown here | 0.27% of 330,000 active | inhibition, % at 25 µM;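 active means about 74% or more and at least 40 points above the plate without the antibiotic, then above 30% in a dose series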;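 further: growth measured after seven days incubation then overnight dye step; 0% = bacteria only wells and 100% = bacteria with antibiotic; twin plates without the antibiotic show which effects depend on it; some results filed as inactive read as strong as hits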
Arbovirus inh repeat = recorded beside Arbovirus inh, whose call it bears; inhibition, %; measured here: 10K subset replicate screen; many hits read low in the repeat;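 first of two repeat runs on a subset; 0% = infected and 100% = uninfected wells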
* marks the source's active call; other numbers are inactive results; x = not tested or not shown. A portion of the library, so the mix of outcomes need not match the whole.

A first look:
SMILES	Arbovirus inh	Mtb growth	RecA splice inh	YopH PTP inh	Mtb betalactam	others
COc1ccc2[nH]c3c(=O)n(CCCCC(=O)NCCN4CCCC4)c(=S)[nH]c3c2c1	2	4%	-2.1	-34	-4
COc1cccc(NC(=O)C(OC(=O)c2cnc(C)cn2)c2ccccc2)c1 (stereo not given)	x	x	1.0	x	4

All compounds of this part (from the top)
SMILES	Arbovirus inh	Mtb growth	RecA splice inh	YopH PTP inh	Mtb betalactam	others
COc1ccc2[nH]c3c(=O)n(CCCCC(=O)NCCN4CCCC4)c(=S)[nH]c3c2c1	2	4%	-2.1	-34	-4
COc1cccc(NC(=O)C(OC(=O)c2cnc(C)cn2)c2ccccc2)c1 (stereo not given)	x	x	1.0	x	4
CCS(=O)(=O)N1CCN(S(=O)(=O)c2ccc3ccccc3c2)CC1	x	x	-1.7	x	-1
Cn1nnnc1SCc1ccc([N+](=O)[O-])cc1	-5	1%	-1.5	-18	9
Cc1ccc(S(=O)(=O)N(CC(=O)N/N=C/c2ccc(F)cc2)c2cccc3cccnc23)cc1	-3	2%	x	0	-5
COCCn1c(SC(C)C(=O)NC2CC2)nnc1-c1cccc(C)c1 (stereo not given)	x	x	-2.3	x	-12
COc1ccc(C(C)(C)C)cc1NC(=O)c1ccc2ncsc2c1	x	x	8.6	x	20
Cc1sc2ncnc(N3CCC(C(=O)N(CC(C)C)c4nc5ccccc5s4)CC3)c2c1C	x	x	3.0	x	2
Cc1ccc(NS(=O)(=O)c2ccc(C(=O)NCc3ccccn3)cc2)cc1	x	x	-0.9	x	-9
Cc1ccc(S(=O)(=O)NC(=NCc2ccccc2)c2ccc(F)cc2)cc1	x	x	2.5	x	6
Cn1c(=O)oc2cc(S(=O)(=O)Nc3ccc4c(c3)OCCO4)ccc21	4	6%	-2.9	-19	8
O=C(Nc1ccccc1C(=O)O)c1ccc(Br)c(S(=O)(=O)NCc2ccccc2)c1	31*	-8%	-0.7	x	-6
COc1ccccc1N1CCN(C(=O)c2c(-c3c(Cl)cccc3Cl)noc2C)CC1	-7	1%	3.3	28	-14
O=C(CN1C(=O)CC(c2ccccc2)S(=O)(=O)c2ccccc21)N1CCOCC1 (stereo not given)	3	5%	0.1	x	-2
CCOc1ccc2nc(NC(=O)CCn3cccc3)sc2c1	-6	8%	-0.1	-2	-1
COc1ccccc1OCCCn1c(=O)oc2ccccc21	2	8%	2.2	-15	-8
COc1ccc(CCNC(=O)c2cc3c(=O)n4ccccc4nc3n(C3CCCCC3)c2=N)cc1OC	x	x	-4.2	x	-3
Cc1cc(Oc2ccc(C)c(Cl)c2)nc(SCC(=O)c2ccccc2)n1	20	6%	0.8	-12	7
COc1ccccc1/C=C(\C#N)C(=O)c1cccn1C	x	x	-1.4	x	3
Cc1cc(=O)oc2cc(NC(=S)NCc3ccccn3)ccc12	8	3%	-0.3	x	-6
CCCc1ccc(C#N)c(SC2CC(=O)N(c3ccc(OC)cc3)C2=O)n1 (stereo not given)	2	-2%	-6.6	x	-2
Cc1cc(N=Cc2c(O)ccc3ccccc23)no1	3	-1%	1.6	-33	32
O=C(NCCCN1CCOCC1)C(=O)NCc1ccccc1	6	2%	-1.6	x	-3
COc1cc(C(=O)NCCN2C(=O)S/C(=C\c3cccs3)C2=O)cc(OC)c1OC	-10	-1%	2.6	x	-7
O=C(CSc1nnnn1C1CCCCC1)NCc1cccc(C(=O)O)c1	8	0%	1.5	9	-4
CCOC(=O)c1c(C)oc2cc(Br)c(OC(=O)N3CCOCC3)cc12	-4	14%	-2.5	-21	2	Arbovirus inh repeat=-1
CCC(C)NC(=O)C(Cc1ccccc1)NS(=O)(=O)c1cccc2nsnc12 (stereo not given)	12	1%	0.5	-1	-3
CCOCCc1nnc(N)s1	-3	-4%	0.0	-2	4
COCCN(C(=O)COC(=O)C1CCC(C(C)(C)C)CC1)c1c(N)n(Cc2ccccc2)c(=O)[nH]c1=O (stereo not given)	x	x	2.9	x	-11
C/C=C/C(=O)N1CC2(CC(c3cccc(NC(=O)COc4ccc(Cl)cc4)c3)=NO2)C[C@@H]1C(N)=O (stereo not given in full)	x	-6%	1.6	x	-7
CCOC(=O)C1=NN(c2ccc(Cl)cc2)C(=O)C1	x	0%	0.3	x	92
O=c1cc(C(F)(F)F)nc(-c2ccccc2OC(F)(F)F)[nH]1	x	-2%	5.9	x	2
COc1ccccc1Nc1cc(C(=O)NCCCN2CCOCC2)c2ccccc2n1	-2	2%	-2.5	-20	-5	Arbovirus inh repeat=3
O=C(NNC(=O)c1ccccc1OCc1ccc(F)cc1)c1ccncc1	x	x	-0.7	x	-3
Cc1cc2nc(SCCOC(=O)Nc3ccc(Cl)cc3)nc(C)c2cc1C	13	2%	-3.3	-23	-3
COc1cc(C2/C(=C(\O)c3ccc4c(c3)CC(C)O4)C(=O)C(=O)N2CCCn2ccnc2)ccc1O (stereo not given)	13	4%	-2.0	-29	20
Nc1ccc2nc(-c3ccccc3)sc2c1	-20	-1%	-1.3	-10	81
C=CCn1c(SCc2ccc(C(=O)O)cc2)nc2sc(C)c(C)c2c1=O	x	-13%	1.3	x	2
COc1ccccc1C(c1nnnn1Cc1ccccc1)N1CCN(C2CCCC2)CC1 (stereo not given)	1	-8%	0.6	8	-5
CCOc1ccc(-n2cccc2C=O)cc1	-5	3%	-0.6	5	2
CC(=O)c1cccc(NS(=O)(=O)c2ccc(-c3cc(C)no3)s2)c1	x	x	-2.0	x	3
COc1ccc(S(=O)(=O)N2CCC(C(=O)NCC3CCCO3)CC2)cc1C (stereo not given)	-4	-1%	-1.9	-11	-3
Cc1ccc(-n2c(Cc3ccccc3)nnc2SCC(=O)NNC(=O)Cc2ccccc2)cc1	3	-11%	5.7	-26	-12
COc1ccc2ccccc2c1-c1sc(Nc2ccccc2)n[n+]1-c1ccc(F)cc1	x	x	21	x	100
NC(=O)CN1CCN(c2cccc(Cl)c2)CC1	5	-1%	-1.6	x	-4
CCOC(=O)N1N=C(c2ccc(C)cc2)CC1(O)C(F)(F)F (stereo not given)	2	-3%	x	-42	4
CC(C)Cc1csc(NC(=O)c2ccc(F)cc2)c1C(=O)O	48*	-7%	1.8	-27	0
COc1ccc(S(=O)(=O)N2CCOC2CNC(=O)C(=O)NCc2ccncc2)cc1C (stereo not given)	x	x	3.0	x	-6
Cc1cccc(S(=O)(=O)c2c(N)n(/N=C/c3ccccc3)c3nc4ccccc4nc23)c1	-2	1%	-15	7	0
CCN(CC)CC(C)CNC(=O)CN1C(=O)CSc2ccc(S(=O)(=O)N3CCOCC3)cc21 (stereo not given)	7	-5%	-1.7	-33	-3
CCOc1ccc(NC(=O)Cc2ccc(S(=O)(=O)N3CCOCC3)s2)cc1OCC	x	x	4.5	x	-12
COC(=O)c1ccc(CN(c2ccccn2)S(=O)(=O)c2ccccc2)cc1	-2	0%	x	-40	3
CCC(C)NC(=O)CNC(=S)N(Cc1ccccc1F)C1CCCCC1 (stereo not given)	5	1%	1.3	x	-2
CCn1ncc(-c2csc(N)n2)c1C	-10	-6%	-3.5	x	-5
Cc1ccnc(N2C(=O)c3ccc([N+](=O)[O-])cc3C2=O)c1	x	x	-7.0	x	-5
O=C1Nc2ccccc2O/C1=C\c1ccccc1Br	x	x	-9.6	x	6
COc1cccc(NC(=O)N2CCCC2C(=O)NCc2ccco2)c1 (stereo not given)	x	x	0.5	x	-7
c1ccc(CNn2c(N3CCOCC3)nc3ccccc32)cc1	1	-10%	x	-30	x	Arbovirus inh repeat=1
O=C(NCCCN1CCCC1)Nc1ccccc1[N+](=O)[O-]	x	x	-0.9	x	-10
CC(=O)N1c2ccc(S(=O)(=O)NCC3CCC(C(=O)Nc4cccc(C)n4)CC3)cc2CC1C (stereo not given)	x	x	2.4	x	4

Further records.
SMILES	Arbovirus inh	Mtb growth	RecA splice inh	YopH PTP inh	Mtb betalactam	others
O=C(CSc1nnc(-c2ccco2)n1Cc1ccco1)NCc1ccccc1	2	-1%	3.8	-1	-4
COc1ccc(NC(=O)Nc2ccccc2C(=O)N2CCCC2)cc1	4	0%	-2.1	-6	3
CC(C)(C)n1nnnc1C(c1ccncc1)N1CCN(C2CCCCC2)CC1 (stereo not given)	2	-3%	0.0	-19	1
COC(C[C@H]1O[C@H]1[C@H](O)COCc1ccccc1)OC	x	-8%	-6.0	x	x
CCNC(=S)Nc1ccc(Oc2ccccc2)cc1	x	4%	6.4	-38	71
Cc1ccc2nc(-c3cccnc3)cc(C(=O)Nc3ccccc3[N+](=O)[O-])c2c1	x	x	1.8	x	4
O=C(COC(=O)CCN=C1NS(=O)(=O)c2ccccc21)NNC(=O)c1ccccc1	x	x	0.9	x	0
CCCN1CCC(NC(=O)c2cccc(Oc3ccccc3)c2)CC1	x	x	-3.2	x	-4
Nc1nnnn1/N=C/c1cc(Br)ccc1O	x	x	-3.3	x	-1
O=S(=O)(Nc1ccc(O)c(CN2CCCCC2)c1)c1ccccc1	17	-4%	-2.5	-38	5
Cn1cc(S(=O)(=O)N2CCCC2)cc1C(=O)NCc1ccccc1Cl	x	x	-1.2	x	-5
CCc1ccc(NC(=O)CSc2nc3n[nH]c(C)c3c(=N)n2-c2cccc(OC)c2)cc1	0	8%	0.2	-26	99
O=C(CCl)N1c2ccccc2CCc2ccccc21	x	x	80*	x	100
COc1ccc(-c2nn(-c3ccccc3C)cc2CNCc2cccnc2)cc1F	-6	1%	-1.0	x	8
O=C1C=CC(=O)N1c1ccc(N2CCCCC2)cc1	3	3%	3.1	x	-13
CC(C)CN1C(=O)NC2(CCCc3ccccc32)C1=O (stereo not given)	x	x	-1.8	x	1
Cc1ccc(NC(=O)CCNS(=O)(=O)c2ccc3c(c2)CCC(=O)N3)cc1	x	x	-2.5	x	2
O=C(CF)NC(NC(=S)Nc1ccccc1O)C(Cl)(Cl)Cl (stereo not given)	-11	-6%	0.4	x	82
CCN(CC)S(=O)(=O)c1cccc(C(=O)N/N=C/c2ccccn2)c1	-6	-3%	-0.3	x	-5
COC(c1ccccc1)c1nnc(CCC(=O)N(C)CCCC2CCCC2)o1 (stereo not given)	-2	-2%	3.1	x	1

7 records picked at random from those above, as already listed:
SMILES	Arbovirus inh	Mtb growth	RecA splice inh	YopH PTP inh	Mtb betalactam	others
O=C(COC(=O)CCN=C1NS(=O)(=O)c2ccccc21)NNC(=O)c1ccccc1	x	x	0.9	x	0
Nc1nnnn1/N=C/c1cc(Br)ccc1O	x	x	-3.3	x	-1
CC(C)(C)n1nnnc1C(c1ccncc1)N1CCN(C2CCCCC2)CC1 (stereo not given)	2	-3%	0.0	-19	1
O=C(CF)NC(NC(=S)Nc1ccccc1O)C(Cl)(Cl)Cl (stereo not given)	-11	-6%	0.4	x	82
Cc1ccc2nc(-c3cccnc3)cc(C(=O)Nc3ccccc3[N+](=O)[O-])c2c1	x	x	1.8	x	4
CCCN1CCC(NC(=O)c2cccc(Oc3ccccc3)c2)CC1	x	x	-3.2	x	-4
COc1ccc(NC(=O)Nc2ccccc2C(=O)N2CCCC2)cc1	4	0%	-2.1	-6	3

Other entries follow.
SMILES	Arbovirus inh	Mtb growth	RecA splice inh	YopH PTP inh	Mtb betalactam	others
CCOc1cc2nc3c4ccccc4n(C)c3nc2cc1OCC	-1	0%	-3.1	-35	8
N=C(N)SCc1cn(-c2ccccc2)nc1-c1ccc(Br)cc1	-31	6.8µM*	40*	x	x
CCN1C(=O)[C@H]2[C@@H](c3ccc(OC)cc3)N3C(=O)CN(Cc4ccccc4)C(=O)[C@@]3(C)[C@H]2C1=O	x	x	-1.4	x	6
Cc1cc(C(=O)N2CCCC(N3CCN(c4ccc(F)cc4)CC3)C2)no1 (stereo not given)	x	x	-2.4	x	-11
CCN1CCN(CCNC(=O)c2cn(Cc3ccccc3F)nn2)CC1	-1	-2%	x	0	6
COc1ccc(NC(=S)N/N=C/c2ccc(F)c(F)c2)cc1	x	-5%	-8.1	x	-7
CC(NC(=O)c1ccc(CS(C)(=O)=O)cc1)C1CC2CCC1C2 (stereo not given)	x	x	1.0	x	-7
O=C(CN1CCN(c2ccc([N+](=O)[O-])cc2)CC1)Nc1nccs1	7	-2%	1.1	-29	-1
CN(C)CC1CCCCC1OC(=O)/C=C/c1ccccc1 (stereo not given)	x	-7%	3.1	x	-7
O=C(c1ccncc1)N1CCN(S(=O)(=O)c2cccc([N+](=O)[O-])c2)CC1	x	x	-2.0	x	1
CCN(CC)C(=O)N(CC)Cc1ccccc1	5	11%	-0.4	x	-4
COc1ccccc1NC(=O)COc1ccc(/C=N/n2cnnc2)cc1OC	3	-1%	-1.3	-34	-4
CC(=O)N1c2ccc(S(=O)(=O)NCCC(=O)N3CCCC(C)C3)cc2CC1C (stereo not given)	x	x	-0.2	x	5
CCN(Cc1ccncc1)Cc1ccc(Br)cc1	x	x	2.1	x	-2
CNCCCNC(=O)c1ccc(/C=N/O)nc1	6	4%	-7.8	x	-10
